Ecoli growth = E. coli growth inhibition, primary screen, OD600; 330,000 tested, 0.21% active; Escherichia coli growth, 23 h; hits give low values; OD600 absorbance (test concentration not listed);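 active = OD600 absorbance below the run mean of sample wells minus 3.6 SD, in any replicate, cut at about 0.56 in these data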;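 note: stock transfer was 300 nL into about 60 µL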
UCH37 DUB inh = inhibitors of human UCH37 deubiquitinase, primary screen, biochemical, Ub-AMC cleavage, fluorescence; Ubiquitin carboxyl-terminal hydrolase isozyme L5 (Homo sapiens), Q9Y5K5; AID 588478, 2011; inhibition, % (no concentration beside the values); 330,000 tested, 0.33% active; purified proteasome/UCH37;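 active = mean of two replicates above 20%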;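 note: 0% = compound-free wells with enzyme and 100% = wells lacking proteasome; stock transfer was 100 nL into about 20 µL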
Target sequence (Q9Y5K5 whole entry, looked up): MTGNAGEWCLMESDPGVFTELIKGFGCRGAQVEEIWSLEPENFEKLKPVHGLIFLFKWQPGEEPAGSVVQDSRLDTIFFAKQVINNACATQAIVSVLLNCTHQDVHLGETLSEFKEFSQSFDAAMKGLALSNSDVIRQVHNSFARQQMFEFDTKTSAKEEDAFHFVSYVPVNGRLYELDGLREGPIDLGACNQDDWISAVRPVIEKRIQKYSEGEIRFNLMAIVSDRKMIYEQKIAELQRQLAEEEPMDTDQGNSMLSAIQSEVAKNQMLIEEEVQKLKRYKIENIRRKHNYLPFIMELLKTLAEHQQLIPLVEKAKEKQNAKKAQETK
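System: Proteasome-associated human UCH37 deubiquitinase; Input: 0.15 nM proteasome in added enzyme buffer; Also added: Ub-AMC substrate from 1 µM stock; Incubation: 30 min compound-proteasome preincubation then 25 min substrate reaction, room temperature; Detection: fluorescence, ex 355 nm, em 460 nm; Read-out: % inhibition of Ub-AMC cleavage fluorescence; Benchmarks: no-proteasome and no-compound wells.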
Starred values were filed as active, the others as inactive.

| molecule | Ecoli growth | UCH37 DUB inh |
| --- | --- | --- |
| O=C(CN1CCN(Cc2ccccc2Cl)CC1)NN=Cc1ccccn1 | 0.633 | 6.3 |
| COc1ccc(C=NNC(=O)c2ccc(COc3ccccc3Cl)o2)cc1 | 0.684 | -11.1 |
| COc1ccc(C=NNc2cc(N3CCOCC3)ncn2)c(OC)c1 | 0.665 | -28.4 |
| COc1ccc(N(CC(=O)NN=Cc2cc3ccc(OC)cc3nc2Cl)S(=O)(=O)c2ccccc2)cc1 | 0.643 | -383.7 |
| CC(=NNC(=O)Nc1ccccc1)c1ccc(C)cc1 | 0.642 | 1.8 |
| COc1cc(C=NNC(=O)CNC(=O)c2ccncc2)ccc1OC(C)=O | 0.657 | 5.5 |
| NC(Cc1ccc([N+](=O)[O-])cc1)=NOC(=O)Cc1ccccc1 | 0.703 | 3.2 |
| CCOC(=O)CC(C)=NNc1nc(-c2ccccc2)cs1 | 0.647 | 0.5 |
| COC(=O)C=c1sc(=C(C#N)C(=O)NCc2ccco2)n(-c2ccccc2)c1=O | 0.719 | 1.7 |
| Cc1ccc(S(=O)(=O)N2CCC(C(=O)NN=Cc3ccncc3)CC2)cc1 | 0.712 | 3.3 |
| COc1cc(C=NNC(=O)c2ccoc2C)ccc1OCCN1CCCCC1 | 0.651 | 1.8 |
| COc1ccc(C(C)=NNC(=O)Cn2nc([N+](=O)[O-])cc2C)cc1 | 0.642 | 0.5 |
| O=C(NN=Cc1ccccc1C(F)(F)F)c1ccc(O)cc1 | 0.66 | 4.8 |
| O=C(NN=Cc1cc([N+](=O)[O-])ccc1N1CCCC1)c1ccccn1 | 0.712 | 1.9 |
| COc1ccc(-c2nn(-c3ccccc3)cc2C=NNc2ccc(S(N)(=O)=O)cc2[N+](=O)[O-])cc1OC | 0.732 | 5.9 |
| Cc1ccc(C=Nn2cnc3sc4c(c3c2=O)CCCC4)o1 | 0.661 | 4.9 |
| CCCCc1c(C)c2ccc(OC)c(C(C)=NO)c2oc1=O | 0.75 | -7.8 |
| CC(CC(=O)Nc1ccccn1)=NNC(=O)Cc1cccc2ccccc12 | 0.688 | 6.3 |
| O=C(CCC(=O)Nc1cccc2ccccc12)NN=Cc1ccco1 | 0.668 | 0.0 |
| CC(/C=C/C=C/c1ccccc1)=NNC(=O)C(O)c1ccccc1 (stereo not given) | 0.645 | 4.3 |
| Cc1cccc(OCC(=O)NCC(=O)NN=Cc2cc(Br)ccc2OCc2ccccc2)c1 | 0.67 | 0.8 |
| O=C(NN=C(Cc1ncc[nH]1)c1ccccc1)c1ccccc1 | 0.639 | 1.1 |
| Brc1ccc(/C=C/C=NNc2nc3ccccc3s2)cc1 | 0.721 | 3.4 |
| COc1cccc(-c2c(C(=O)NN=C(C)c3cccs3)nnn2-c2nonc2N)c1 | 0.694 | 3.5 |
| Cc1ccccc1-n1c(SCC(=O)NN=Cc2ccccc2OCC(=O)O)nc2ccccc2c1=O | 0.653 | 4.9 |
| CCc1ccc(C=c2sc(=CC(=O)C(C)(C)C)[nH]c2=O)cc1 | 0.699 | 5.6 |
| Brc1cccc(C=NNc2nn[nH]n2)c1 | 0.697 | 4.4 |
| O=[N+]([O-])c1ccccc1S(=O)(=O)Oc1ccc(C=Nn2cnnc2)cc1 | 0.712 | 1.6 |
| Cc1ccc(OCC(=O)NN=Cc2ccc(C)o2)c([N+](=O)[O-])c1 | 0.696 | 4.6 |
| C/C(C=NNC(=O)c1cc(-c2ccncc2)nc2ccccc12)=C\c1ccco1 | 0.646 | 8.7 |

| molecule | Ecoli growth | UCH37 DUB inh |
| --- | --- | --- |
| CC(=NNC(=O)c1ccn(C)n1)c1ccc(NC(=O)c2cccc(F)c2)cc1 | 0.654 | 2.8 |
| O=C(Cc1cc(=O)[nH][nH]1)NN=Cc1cccc(Cl)c1Cl | 0.671 | 5.7 |
| C/C(C=NNC(=O)c1cc(C(C)(C)C)[nH]n1)=C\c1ccccc1 | 0.754 | 8.2 |
| O=C(NN=Cc1ccc(-c2ccccc2[N+](=O)[O-])o1)C1COc2ccccc2O1 (stereo not given) | 0.685 | 6.4 |
| COc1cccc(C=NNC(=O)c2cnn(-c3ccccc3)c2N)c1 | 0.655 | 4.2 |
| COc1ccc2c(Cl)c(C(=O)NN=Cc3cccnc3)sc2c1 | 0.699 | -7.0 |
| O=[N+]([O-])c1ccc(NN=Cc2ccccc2OCc2ccccc2)cc1 | 0.692 | -9.5 |
| COCc1cc(C=NNC(=O)c2ccc(Cl)cc2)ccc1OC | 0.664 | 6.1 |
| O=C(CC(=O)NC1CCCCC1)NN=Cc1ccccc1Cl | 0.625 | 1.7 |
| Cc1ccc(Nc2nc(N=CNO)n[nH]2)cc1C | 0.719 | 1.0 |
| COc1ccc(C=NNc2nnc(Cc3ccccc3)c(=O)[nH]2)cc1 | 0.721 | 4.5 |
| CCOc1cccc(C=NNC(=O)c2cc(-c3cccn3C)n[nH]2)c1O | 0.691 | 0.8 |
| Nc1nonc1-n1nnc(C(=O)NN=Cc2ccncc2)c1-c1ccccc1 | 0.732 | 7.5 |
| CC(=NNC(=O)c1cccs1)c1ccc2ccccc2c1 | 0.714 | -21.2 |
| CCn1c(SCC(=O)NN=C/C(C)=C\c2ccco2)nnc1-c1ccccc1 | 0.674 | -1.2 |
| Cc1c(Cl)cccc1NC(=S)NN=Cc1ccccc1Cl | 0.732 | 5.1 |
| O=C(CC(=O)NN=Cc1ccccc1)NCCc1ccccc1 | 0.64 | 3.5 |
| CCCCNC(=S)N(C)N=Cc1ccccc1F | 0.72 | 2.5 |
| Cc1oc(N=Cc2ccc3c(c2)OCO3)c(C#N)c1C | 0.722 | 3.1 |
| CCCCCCCCC(=O)NN=Cc1cccc(Br)c1 | 0.705 | -0.1 |
| CN(C)c1ccc(C=NNc2nc(-c3ccccc3)cc(=O)[nH]2)cc1 | 0.682 | 1.2 |
| Fc1ccc(C=NNc2nccnc2Cl)cc1 | 0.704 | 8.6 |
| O=C(CNc1cccc2ccccc12)NN=C/C=C/c1ccco1 | 0.687 | 7.9 |
| CC(CC(=O)Nc1ccc(Cl)c(Cl)c1)=NNC(=O)Cc1ccccc1 | 0.67 | 6.2 |
| Cc1c(C=NN2C(=O)C3C4C=CC(C4)C3C2=O)c2ccccc2n1C (stereo not given) | 0.722 | 6.6 |
| COc1ccc(C(=O)NN=C(C)CC(=O)Nc2ccc(N(C)C)cc2)c(OC)c1 | 0.66 | 0.2 |
| Cc1scc(C(=O)NN=Cc2ccsc2)c1C | 0.618 | 1.7 |
| Cc1ccccc1NN=C1CCCNC1=O | 0.754 | 8.8 |
| CC(CC(=O)Nc1ccccn1)=NNC(=O)c1ccc2ccccc2c1 | 0.714 | 4.1 |
| CCOc1cccc(C=NNc2ccc(S(=O)(=O)N(CC)CC)cn2)c1O | 0.657 | 3.2 |

Ordered by number of heavy atoms (ascending): some entries from above.
| molecule | Ecoli growth | UCH37 DUB inh |
| --- | --- | --- |
| Cc1ccc(Nc2nc(N=CNO)n[nH]2)cc1C | 0.719 | 1.0 |
| O=C(CC(=O)NN=Cc1ccccc1)NCCc1ccccc1 | 0.64 | 3.5 |
| COc1ccc(C(=O)NN=C(C)CC(=O)Nc2ccc(N(C)C)cc2)c(OC)c1 | 0.66 | 0.2 |

(list continues)
| molecule | Ecoli growth | UCH37 DUB inh |
| --- | --- | --- |
| Oc1ccc(Br)cc1C=NNc1ncc(-c2ccccc2)cn1 | 0.706 | 3.8 |
| CSC(=NS(=O)(=O)c1cccs1)Nc1ccc(N2CCOCC2)cc1 | 0.708 | -1.3 |
| c1ccc2c(c1)CCC2=NNc1nc2ccccc2[nH]1 | 0.464* | 3.8 |
| CCOc1cc(C=NNC(=O)c2cc(C)n(-c3ccc(F)cc3)c2C)ccc1O | 0.634 | 1.1 |
| CCCOc1ccc(C=NNC(=O)C2CCCN2S(=O)(=O)c2ccc(Cl)cc2)cc1 (stereo not given) | 0.792 | 5.3 |
| CCN1CCN(C=Nc2nc3c(s2)CCCC3)CC1 | 0.734 | 5.1 |
| O=C(COc1cccc2cccnc12)NN=Cc1ccccc1O | 0.699 | -6.6 |
| NC(=S)NN=Cc1c[nH]c2ccccc12 | 0.621 | 7.2 |
| CCOC(=O)NN=Cc1ccc(OC/C=C/c2ccccc2)cc1 | 0.747 | 2.7 |
| O=C(NN=Cc1ccc(Br)s1)c1ccc([N+](=O)[O-])cc1 | 0.686 | 5.7 |
| CCN(CC)S(=O)(=O)c1cccc(-c2n[nH]c(=S)n2N=Cc2ccc(Br)cc2)c1 | 0.735 | 1.5 |
| C[N+](C)(C)CCCCCCC(=O)C=NO | 0.701 | 0.3 |
| O=C(NN=C(Cc1ncc[nH]1)c1ccccc1)c1ccncc1 | 0.703 | -1.3 |
| C(=NN1CCN(Cc2ccccc2)CC1)c1ccccc1 | 0.712 | -1.0 |
| CC(=NNC(=O)COc1ccccc1-c1ccccc1)c1ccc(O)cc1O | 0.72 | -2.1 |
| CN1CCN(N=Cc2ccc(-c3ccc([N+](=O)[O-])cc3Cl)o2)CC1 | 0.684 | 7.2 |
| CC(=NNC(=O)CCCOc1ccc(Cl)cc1C)c1ccc(C)o1 | 0.657 | 0.1 |
| Cc1ccc(S(=O)(=O)NN=Cc2cccc(OC3CSC3)c2)cc1 | 0.707 | 0.7 |
| CC(=NNC(=O)CNC(=O)c1cccnc1)c1cccc(O)c1 | 0.616 | 0.0 |
| COC(=O)c1ccc(COc2ccc(C=NO)cc2)o1 | 0.645 | -1.6 |
| C=CCn1c(N=Cc2ccc(N(C)C)cc2)nc2ccccc21 | 0.64 | 4.5 |
| Nc1ccccc1C=NN=Cc1ccccc1N | 0.68 | 2.7 |
| O=C(CSc1ncccn1)NN=Cc1cccc([N+](=O)[O-])c1 | 0.609 | 3.2 |
| COC(=O)/C=C1/S/C(=N/N=Cc2ccco2)NC1=O | 0.675 | 18.3 |
| O=C(NN=Cc1ccccn1)c1c[nH]c2ccccc12 | 0.627 | 5.4 |
| Cn1cccc1C=NNC(N)=S | 0.649 | 11.8 |
| CCOc1cc(C=NNc2cc(C)nc(-n3nc(C)cc3C)n2)ccc1O | 0.655 | 3.1 |
| C=CCc1ccccc1OCC(=O)NN=Cc1ccccc1OCC | 0.708 | 3.5 |
| O=C(CN1CCOCC1)NN=Cc1ccc(-c2ccc(C(=O)O)cc2)o1 | 0.688 | -10.1 |
| Nc1ccc(C(=O)NN=C2CCCc3c2[nH]c2ccccc32)cc1 | 0.682 | -8.1 |

| molecule | Ecoli growth | UCH37 DUB inh |
| --- | --- | --- |
| CC(=NNC(=O)c1ccc([N+](=O)[O-])cc1)c1c(O)cc(C)oc1=O | 0.677 | 7.9 |
| O=C(Cc1cccc2ccccc12)NN=Cc1ccc(OC(=O)/C=C/c2ccco2)cc1 | 0.718 | 1.4 |
| C=CCN1CC(C)C(=NO)CC1C (stereo not given) | 0.712 | -1.3 |
| Cc1ccccc1OCC(=O)NN=Cc1c(C)nn(-c2ccccc2)c1Cl | 0.723 | 4.8 |
| O=C(NN=Cc1cc(Br)cs1)c1ccc2c(c1)OCCO2 | 0.633 | 3.9 |
| CSc1ccc(C=NNC(=O)c2cccc(Cl)c2)cc1 | 0.662 | -4.5 |
| Cc1occc1C(=O)NN=C/C=C/c1ccccc1 | 0.685 | 11.1 |
| Cc1cc(Cl)ccc1NC(=O)CCC(=O)NN=Cc1cccnc1 | 0.719 | 4.5 |
| COc1ccc(-c2nn(-c3ccccc3)cc2C=NNC(=O)c2ccc3c(c2)OCO3)cc1 | 0.691 | -1.4 |
| Cc1c(C=NNC(=O)C2(C)CC2(Cl)Cl)cnn1C (stereo not given) | 0.692 | 1.9 |
| O=C(CCCNc1ccccc1)NN=Cc1cccs1 | 0.671 | 4.3 |
| CCOC(=O)c1c(N=CC2=C(O)CC(C)(C)CC2=O)sc2c1CCCC2 | 0.666 | -2.3 |
| Cc1cc(C(=O)NN=C2CCCC(C)C2)n[nH]1 (stereo not given) | 0.711 | 5.1 |
| CN(Cc1ccccc1)C(=NO)c1cccc(Cl)c1 | 0.651 | 4.6 |
| CC(=NNC(=O)c1ccoc1C)C12CC3CC(CC(C3)C1)C2 | 0.692 | 0.3 |
| CC(=NNC(=O)c1ccccc1-n1cccc1)C1CC1 | 0.686 | 4.8 |
| O=C(Cn1nnc(N2CCCC2)n1)NN=Cc1ccc(Cl)cc1 | 0.705 | 3.3 |
| CC(C)NC(=S)NN=Cc1ccc(C(C)(C)C)cc1 | 0.679 | 1.9 |
| Cc1c(Cl)c([N+](=O)[O-])nn1Cc1ccc(C(=O)NN=Cc2ccccn2)o1 | 0.698 | 1.9 |
| Cc1ccc(-c2c(C(=O)NN=Cc3ccco3)nnn2-c2nonc2N)cc1 | 0.664 | 4.3 |
| CC(=O)Nc1sc(NN=Cc2ccc(C)cc2)nc1-c1ccc(C)cc1 | 0.66 | -25.0 |
| CC(=NO)c1noc(C)c1C(=O)Nc1nccs1 | 0.734 | 5.4 |
| O=C(CSc1nnc(SCc2ccccc2)s1)NN=Cc1ccc(C(=O)O)cc1 | 0.734 | -0.6 |
| COC(=O)C(=NNc1cccc(C)c1)N1CCCc2ccccc21 | 0.643 | 2.7 |
| CCCOc1ccc(C(=O)NN=Cc2ccc(-c3ccc(S(=O)(=O)Nc4ncccn4)cc3)o2)cc1 | 0.694 | -75.6 |
| O=C(ON=CC1=C(Cl)c2ccccc2CC1)c1ccc(F)cc1 | 0.841 | -0.2 |
| O=C1CCCC(=NNC(=O)c2ccc(COc3cccc4cccnc34)cc2)C1 | 0.701 | -1.1 |
| Cc1cccc(C=NNC(=O)c2sccc2-n2cccc2)c1 | 0.734 | 2.5 |

Compound activity: PubChem BioAssay, ICCB-Longwood Screening Facility, Harvard Medical School

This is a subset. The share of hits here may be higher or lower than overall.
